# High-throughput results as filed in PubChem BioAssay.
# YopH PTP inh = inhibitors of Yersinia enterocolitica YopH tyrosine phosphatase. fluorescence Ex485/Em525. inhibition, %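 (about 10 µM by stock and volumes)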. 140,000 compounds, 0.16% hits. AID 898;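 active = inhibition of 50% or more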;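 also: controls were vehicle for no effect and minimum signal wells for full effect; inactives centre near -20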
# RecA intein inh = inhibitors of M. tuberculosis RecA intein splicing; cell-free RecA intein splicing, fluorescence; 290,000 compounds, 0.75% hits; inhibition, %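 (about 9 µM by stock and volumes)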; P9WHJ3; in the data active = inhibition above about 30%;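 also: 0% = vehicle wells and 100% = reference inhibitor control wells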
# Target sequence (P9WHJ3 whole entry, looked up): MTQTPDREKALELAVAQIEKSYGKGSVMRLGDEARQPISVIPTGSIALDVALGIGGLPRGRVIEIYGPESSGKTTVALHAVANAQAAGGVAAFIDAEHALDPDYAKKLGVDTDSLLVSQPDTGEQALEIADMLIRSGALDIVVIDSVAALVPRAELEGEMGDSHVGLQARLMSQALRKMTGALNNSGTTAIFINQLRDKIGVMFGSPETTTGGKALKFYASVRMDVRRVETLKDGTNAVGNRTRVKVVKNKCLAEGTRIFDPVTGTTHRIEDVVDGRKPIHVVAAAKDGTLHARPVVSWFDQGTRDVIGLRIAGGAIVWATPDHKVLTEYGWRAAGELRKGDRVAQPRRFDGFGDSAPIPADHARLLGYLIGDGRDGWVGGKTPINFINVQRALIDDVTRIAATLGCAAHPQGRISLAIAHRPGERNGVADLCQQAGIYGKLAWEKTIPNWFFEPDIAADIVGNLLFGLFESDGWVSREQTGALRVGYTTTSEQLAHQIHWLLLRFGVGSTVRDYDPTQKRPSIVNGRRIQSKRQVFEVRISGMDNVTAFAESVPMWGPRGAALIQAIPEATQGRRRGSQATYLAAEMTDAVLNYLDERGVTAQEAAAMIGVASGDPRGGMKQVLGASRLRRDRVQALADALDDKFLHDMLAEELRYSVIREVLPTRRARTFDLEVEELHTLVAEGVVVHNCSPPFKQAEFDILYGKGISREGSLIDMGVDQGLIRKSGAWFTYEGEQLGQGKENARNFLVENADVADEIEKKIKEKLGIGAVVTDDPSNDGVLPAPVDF
# Mtb growth = M. tuberculosis H37Rv growth inhibitors, H37Rv strain (AID 1626) | M. tuberculosis H37Rv growth inhibition; higher % means a stronger effect | inhibition, % at 10 µM, or IC50 in µM where a hit was titrated | 220,000 compounds, 0.95% hits;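 active = confirmed in a dose series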;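 also: bacteria incubated seven days before Alamar blue readout; 0% = bacteria only wells and 100% = bacteria with antibiotic wells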
# Arbovirus inh = antivirals against arbovirus infection; arbovirus infection cell-based antiviral screen; inhibition, % at 10 µM; 200,000 compounds, 0.37% hits;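 active = inhibition from about 30%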;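 also: bluetongue infection of BSR cells; cell survival read as ATP light after 72 h; 0% = infected wells without compound and 100% = uninfected wells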
# Mtb betalactam = beta-lactam sensitization of Mtb H37Rv. M. tuberculosis H37Rv growth with meropenem, percent inhibition; hits of this screen are not shown here. inhibition, % at 25 µM. 330,000 compounds, 0.27% hits. AID 434955;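 active = about 74% or more and at least 40 points above the plate without the antibiotic, then above 30% in a dose series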;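 also: growth measured after seven days incubation then overnight dye step; 0% = bacteria only wells and 100% = bacteria with antibiotic; twin plates without the antibiotic show which effects depend on it; some results filed as inactive read as strong as hits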
# Arbovirus inh repeat = further read-out of Arbovirus inh, marked with its call; inhibition, %; measured here: 10K subset replicate screen; many hits read low in the repeat;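 first of two repeat runs on a subset; 0% = infected and 100% = uninfected wells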
# Numbers without * were called inactive; · = no result given. An excerpt; rates above refer to the full screens.
SMILES,YopH PTP inh,RecA intein inh,Mtb growth,Arbovirus inh,Mtb betalactam,others
CCCCn1c(N)c(N(CC)C(=O)c2c(CC)noc2C)c(=O)[nH]c1=O,·,0.4,·,·,-5,
Cc1ccc(S(=O)(=O)N2CCCC(C(=O)O)C2)s1 (stereo not given),-22,·,-8%,2,1,Arbovirus inh repeat=4
Cc1ccsc1C(=O)Nc1ccc(OCc2ccccc2)cc1,·,0.3,·,·,0,
Cc1nnc(C)n1/N=C/c1cccnc1,-9,-1.6,-5%,8,6,
COCCNC(=O)CN1N=C(c2ccc(OC)cc2)CCC1=O,·,-1.5,·,·,-3,
O=C(CSc1nnc(CN2CCOCC2)n1-c1ccccc1)Nc1ccc(Cl)cc1,9,1.7,-15%,3,2,
COC(=O)c1c(C)oc(C)c1S(=O)(=O)N1CCCCC1,·,-2.2,-7%,·,0,
CCN(CC)S(=O)(=O)c1cccc(C(=O)N[C@H](C(=O)O)C(C)C)c1,-6,2.5,-5%,8,-10,
O=c1ncn(-c2cccc(F)c2)c2ncccc12,-16,-0.2,0%,7,11,
Oc1cccc(C2c3[nH]c4ccccc4c3CCN2Cc2cnn(-c3ccccc3)c2)c1 (stereo not given),·,3.2,-2%,-12,47,
Cc1ccc(S(=O)(=O)NC(=O)c2ccc(-c3ccc(-c4ccccc4)cc3)o2)c(C)c1,-23,36*,5%,3,-4,
N#Cc1cc2cc3c(cc2nc1SCC(=O)N1CCOCC1)OCO3,·,0.0,·,·,-3,
O=C(O)c1cc2c([nH]c1=O)CCCC2,38,1.3,4%,2,3,
COc1ccccc1C(=O)NC1CCCc2ccccc21 (stereo not given),·,-0.6,·,·,1,
Cn1c(=O)c(=O)n(C)c2cc(S(=O)(=O)CCC(=O)N3CCCCC3)ccc21,·,-0.8,·,·,-1,
CCOC(=O)CSc1ncc(OC)c(Sc2ccc(Cl)cc2)n1,-35,3.2,12%,5,1,
O=C1Nc2ccccc2Oc2cc([N+](=O)[O-])ccc21,·,-3.9,-4%,-3,-8,
COc1cccc(CNC(=O)CCl)c1,-24,-2.4,3%,17,94,
Cc1ccccc1OCC(=O)N1N=C(C(F)(F)F)CC1(O)C(C)(C)C (stereo not given),-10,·,-9%,-5,0,
Cc1ccc(S(=O)(=O)NNc2ccccc2)cc1,-27,0.7,-5%,-7,20,

# Arranged by number of heavy atoms (lowest first): some entries from above.
SMILES,YopH PTP inh,RecA intein inh,Mtb growth,Arbovirus inh,Mtb betalactam,others
Cc1ccc(S(=O)(=O)NNc2ccccc2)cc1,-27,0.7,-5%,-7,20,
Cc1ccsc1C(=O)Nc1ccc(OCc2ccccc2)cc1,·,0.3,·,·,0,
Cc1ccc(S(=O)(=O)NC(=O)c2ccc(-c3ccc(-c4ccccc4)cc3)o2)c(C)c1,-23,36*,5%,3,-4,

# Compounds above that have an aryl thioether with sulfur outside any ring:
SMILES,YopH PTP inh,RecA intein inh,Mtb growth,Arbovirus inh,Mtb betalactam,others
O=C(CSc1nnc(CN2CCOCC2)n1-c1ccccc1)Nc1ccc(Cl)cc1,9,1.7,-15%,3,2,
N#Cc1cc2cc3c(cc2nc1SCC(=O)N1CCOCC1)OCO3,·,0.0,·,·,-3,
CCOC(=O)CSc1ncc(OC)c(Sc2ccc(Cl)cc2)n1,-35,3.2,12%,5,1,

# The main list resumes with the three entries that preceded the break.
SMILES,YopH PTP inh,RecA intein inh,Mtb growth,Arbovirus inh,Mtb betalactam,others
COc1cccc(CNC(=O)CCl)c1,-24,-2.4,3%,17,94,
Cc1ccccc1OCC(=O)N1N=C(C(F)(F)F)CC1(O)C(C)(C)C (stereo not given),-10,·,-9%,-5,0,
Cc1ccc(S(=O)(=O)NNc2ccccc2)cc1,-27,0.7,-5%,-7,20,
Cc1cc(C)n(C2CCCCC2OC(=O)c2ccccc2F)n1 (stereo not given),-29,5.8,2%,2,-13,
COc1cc(C2C3C(=O)N(Cc4ccccc4)C(=O)C3ON2c2ccccc2)cc(OC)c1OC (stereo not given),-11,9.5,-4%,1,·,
CC(C)c1ccc(C(=O)NC(=S)Nc2ccc3[nH]c(=O)[nH]c3c2)cc1,·,·,11%,·,11,
COc1ccc(C)cc1NC(=O)c1ccc(NS(=O)(=O)c2cccc3cccnc23)cc1,·,0.6,17%,·,9,
Cc1ccc(N(CC(=O)NCc2ccccc2Cl)S(=O)(=O)c2cccs2)cc1,-1,1.6,-2%,2,6,
CCN(CC)S(=O)(=O)c1ccc(C(=O)Nn2cnnc2)cc1,·,-1.0,·,·,-7,
Cc1cc(C)c(NC(=O)C(C)c2cccc(C(=O)c3ccccc3)c2)c(C)c1 (stereo not given),-35,6.1,-3%,-29,-2,
Cn1c2ccccc2c(=O)c2c(=O)n(C3CCCCC3)c(-c3ccco3)nc21,-37,-1.0,12%,-38,-4,
Cn1cccc1Cc1nnc(SCC(=O)Nc2cccc(Cl)c2)n1-c1ccc(F)cc1,-18,7.0,6%,-6,0,
COc1ccccc1NC(=O)Cn1cc(C(=O)C2CC2)c2ccccc21,·,-0.9,·,·,3,
O=S(=O)([N-]c1nc2ccccc2nc1-[n+]1ccccc1)c1ccccc1,-23,0.9,3%,5,7,
COc1ccccc1N1CCN(C(c2ccc(Cl)cc2)c2nnnn2C(C)(C)C)CC1 (stereo not given),-20,4.8,4%,-31,9,
CC(=O)C1=C(O)C(=O)N(c2nccs2)C1c1ccccc1F (stereo not given),·,-8.7,-3%,·,-7,
CC(=S)c1c(C)cc2cc(C)ccn12,0,2.5,-2%,-2,-2,
COc1cccc(C(=O)NCCOc2cc(C)cc(C)c2)c1,-7,4.4,3%,-5,-3,
Oc1ccc(C=NCC2COc3ccccc3O2)cc1 (stereo not given),-8,-0.9,3%,10,-6,Arbovirus inh repeat=4
O=C(OCCN1CCCCC1)c1ccccc1F,·,-0.9,·,·,4,
O=C(C1CCCN(S(=O)(=O)c2ccc(Cl)cc2)C1)N1CCCC1 (stereo not given),·,-1.3,·,·,-4,
COc1cccc(NC(=O)CN(C)C(=O)c2oc3c(ccc4ccccc43)c2C)c1,·,1.7,·,·,-9,
O=C(CSc1ccc(-c2ccco2)nn1)N1CCCC1,·,0.2,-7%,4,-3,
Cc1ccc(C(=O)NCc2ccco2)o1,·,1.9,·,·,-7,
COc1ccc2nc(C)cc(NCCN3CCOCC3)c2c1,·,-0.1,·,·,-2,
CCc1c(O)nc(SCc2nc3ccccc3c(=O)[nH]2)[nH]c1=O,·,2.3,-4%,10,0,
CCNC(=S)NCc1ccc(Cl)cc1,-20,3.3,1%,·,-10,
COc1cc2cc(Oc3ccc4ccc(=O)oc4c3)c(=O)oc2cc1O,-1,-213,-14%,7,5,
O=C(Nc1ccc(F)cc1)c1sc2cc(C(F)(F)F)cnc2c1-c1cccs1,-4,-3.3,10%,-6,75,
Cc1ccc2nc(Nc3nc(C)cc(C(F)(F)F)n3)nc(C)c2c1,-36,2.0,-6%,-3,28,
Cc1ccc(NC(=O)c2cnc3ccccc3n2)cc1C,·,0.7,-11%,·,-5,
CC(C)[C@H](NC(=O)Nc1cccc(C(F)(F)F)c1)C(=O)O,-49,-2.0,-18%,5,-8,
Cc1ccccc1CC(=O)Nc1ccc(C(=O)N2CCCC2)cc1,·,0.4,·,·,-13,
CC(C)(C)c1ccc(-c2nnc(N)o2)cc1,·,1.1,-1%,·,50,
CCC1CCCCN1CCCNC(=O)CCC(=O)N1CCOc2ccccc21 (stereo not given),·,-1.4,·,·,-2,
